From PubChem BioAssay
FGF22 binding: binders of human FGF22 protein, primary screen, FGF22 synaptogenesis inhibitor project, biophysical, thermal shift, single point. Fibroblast growth factor 22 (Homo sapiens), Q9HCT0. recombinant FGF22 thermal shift, SYPRO orange fluorescence; percent of sucrose octasulfate shift, DMSO zero. calls only at 9.99 µM. actives 1.5% (n = 340,000);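 active means melting point raised past a set limit in the mean and every replicate; three in four hits are not shown here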
Target sequence (Q9HCT0 whole entry, looked up): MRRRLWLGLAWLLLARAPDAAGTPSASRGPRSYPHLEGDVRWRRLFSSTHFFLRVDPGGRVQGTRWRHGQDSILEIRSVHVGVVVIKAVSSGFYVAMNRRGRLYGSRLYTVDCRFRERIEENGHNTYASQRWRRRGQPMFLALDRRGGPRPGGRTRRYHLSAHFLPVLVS
AF4-AF9 inh: inhibitors of AF4 peptide binding to AF9, primary screen, biochemical, AlphaScreen, biotin-AF4 peptide, FLAG-AF9, single point; AID 651704, 2012; inhibition, % at 10 µM; actives 0.47% (n = 350,000); Protein AF-9 (Homo sapiens), P42568;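 active means every replicate reaching a set inhibition limit, whatever the replicate mean, cut at about 25% in these data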;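 further: 0% = plate neutral control median and 100% = total signal loss; the record names both 10 and 1 µM as test concentration; the first replicate is given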
Target sequence (P42568 whole entry, looked up): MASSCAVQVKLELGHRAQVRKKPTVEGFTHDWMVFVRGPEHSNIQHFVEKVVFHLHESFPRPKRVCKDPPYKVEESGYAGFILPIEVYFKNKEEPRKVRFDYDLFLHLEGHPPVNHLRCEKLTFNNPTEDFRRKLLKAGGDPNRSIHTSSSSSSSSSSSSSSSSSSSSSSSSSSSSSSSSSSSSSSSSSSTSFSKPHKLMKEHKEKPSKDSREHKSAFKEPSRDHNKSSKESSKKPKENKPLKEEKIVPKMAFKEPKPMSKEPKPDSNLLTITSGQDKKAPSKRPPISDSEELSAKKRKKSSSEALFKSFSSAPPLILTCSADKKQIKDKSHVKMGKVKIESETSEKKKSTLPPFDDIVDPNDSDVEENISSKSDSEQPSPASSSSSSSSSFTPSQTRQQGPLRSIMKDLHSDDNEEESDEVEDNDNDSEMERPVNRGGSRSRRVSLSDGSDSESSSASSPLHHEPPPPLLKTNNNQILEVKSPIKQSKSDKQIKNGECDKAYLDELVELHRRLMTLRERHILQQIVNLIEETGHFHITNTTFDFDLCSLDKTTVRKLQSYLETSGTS
Active calls of the source: *; i = inactive. A portion of the library; rates above refer to the full screens.

SMILES	FGF22 binding	AF4-AF9 inh
Cc1ccc(S(=O)(=O)Nc2ccc3c(c2)CC(=O)N([C@@H](C)CO)C[C@H](C)[C@@H](CN(C)Cc2ccncc2)O3)cc1	i	7.8
C[C@H]1CN([C@@H](C)CO)C(=O)c2c(c3ccccc3n2C)-c2ccccc2CO[C@@H]1CN(C)S(=O)(=O)c1ccccc1	i	1.7
C[C@@H]1CCCCO[C@H](CN(C)C(=O)CCC(F)(F)F)[C@H](C)CN([C@@H](C)CO)C(=O)c2cc(NC(=O)Nc3ccc4c(c3)OCO4)ccc2O1	i	5.0
C[C@@H]1CN([C@H](C)CO)C(=O)c2cc(NC(=O)NC3CCCCC3)ccc2O[C@@H](C)CCCCO[C@H]1CN(C)C(=O)NC1CCCCC1	i	-0.4
N#C[C@@H]1[C@H](c2ccccc2-c2ccc(F)cc2)[C@H](CO)N1c1ncc(-c2ccccc2)s1	i	-1.9
C[C@H]1CN([C@@H](C)CO)C(=O)c2cccc(NC(=O)c3ccncc3)c2O[C@H]1CN(C)C(=O)Nc1ccc(F)cc1	i	-1.5
C[C@H]1CCCCO[C@@H](CN(C)C)[C@@H](C)CN([C@@H](C)CO)C(=O)c2cc(NC(=O)CCCN(C)C)ccc2O1	i	-2.2
C[C@H](CO)N1C[C@H](C)[C@H](CN(C)C(=O)Nc2cccc3ccccc23)Oc2ccc(NS(=O)(=O)c3ccc(F)cc3)cc2CC1=O	i	3.4
C[C@H](CO)N1C[C@H](C)[C@@H](CN(C)C(=O)Nc2ccc3c(c2)OCO3)Oc2ccc(N(C)C)cc2C1=O	i	2.2
O=C(C[C@H]1C=C[C@H](NS(=O)(=O)c2ccc(F)cc2)[C@H](CO)O1)N1CCC(Cc2ccccc2)CC1	i	-1.2
C[C@@H]1CN([C@@H](C)CO)C(=O)Cc2cc(NC(=O)c3ccncc3)ccc2O[C@H]1CN(C)Cc1ccc(Oc2ccccc2)cc1	i	20
CO[C@@H]1CN(C)C(=O)c2ccc(NC(=O)c3cnccn3)cc2OC[C@H](C)NC[C@@H]1C	i	-3.6
O=C(C[C@H]1C=C[C@@H](NC(=O)Nc2cc(F)ccc2F)[C@H](CO)O1)NCc1ccncn1	i	0.2
COCC(=O)Nc1ccc2c(c1)OC[C@H](C)NC[C@@H](C)[C@@H](OC)CN(C)C2=O	i	1.4
O=S(=O)(c1ccccc1)N1C[C@@H]2[C@H](c3ccccc31)[C@@H](CO)N2Cc1ccc(F)cc1	i	2.4
CCCN(C)C[C@@H]1Oc2ncc(-c3cccnc3)cc2C(=O)N([C@@H](C)CO)C[C@@H]1C	i	-4.9
C[C@H](CO)N1C[C@H](C)[C@@H](CN(C)Cc2ccc(Oc3ccccc3)cc2)Oc2c(NC(=O)c3nc4ccccc4s3)cccc2C1=O	i	-9.9
C[C@@H]1CCCCO[C@H](CN(C)Cc2ccc3c(c2)OCO3)[C@H](C)CN([C@@H](C)CO)C(=O)c2cc(NC(=O)Nc3ccc(F)cc3)ccc2O1	i	10
O=C(c1ccccn1)N1C[C@H]2[C@@H](c3ccccc31)[C@H](CO)N2C(=O)C1CC1	i	-2.2
CCC(=O)N1C[C@@H](C)[C@@H](OC)CN(C)C(=O)c2cc(NC(=O)Nc3cccc(F)c3)ccc2OC[C@@H]1C	i	0.9
CCCNC(=O)N(C)C[C@H]1Oc2cc(C#CCN(C)C)ccc2S(=O)(=O)N([C@H](C)CO)C[C@H]1C	i	-1.3
C/C=C/c1cnc2c(c1)C(=O)N([C@@H](C)CO)C[C@@H](C)[C@H](CN(C)C(=O)NC1CCCC1)O2	i	-4.1
C[C@@H]1CN([C@H](C)CO)C(=O)Cc2cc(NS(C)(=O)=O)ccc2O[C@H]1CN(C)Cc1ccc(C(=O)Nc2ccccc2N)cc1	i	1.8
C[C@@H]1CN([C@@H](C)CO)C(=O)c2cccc(NS(=O)(=O)c3cn(C)cn3)c2O[C@H]1CN(C)C(=O)Nc1ccccc1	i	-1.4
CO[C@@H]1CN(C)C(=O)c2ccc(NC(=O)C3CC3)cc2OC[C@H](C)N(CC2CCCC2)C[C@@H]1C	i	-1.9

Compounds above containing a halogen (9):
SMILES	FGF22 binding	AF4-AF9 inh
C[C@@H]1CCCCO[C@H](CN(C)C(=O)CCC(F)(F)F)[C@H](C)CN([C@@H](C)CO)C(=O)c2cc(NC(=O)Nc3ccc4c(c3)OCO4)ccc2O1	i	5.0
N#C[C@@H]1[C@H](c2ccccc2-c2ccc(F)cc2)[C@H](CO)N1c1ncc(-c2ccccc2)s1	i	-1.9
C[C@H]1CN([C@@H](C)CO)C(=O)c2cccc(NC(=O)c3ccncc3)c2O[C@H]1CN(C)C(=O)Nc1ccc(F)cc1	i	-1.5
C[C@H](CO)N1C[C@H](C)[C@H](CN(C)C(=O)Nc2cccc3ccccc23)Oc2ccc(NS(=O)(=O)c3ccc(F)cc3)cc2CC1=O	i	3.4
O=C(C[C@H]1C=C[C@H](NS(=O)(=O)c2ccc(F)cc2)[C@H](CO)O1)N1CCC(Cc2ccccc2)CC1	i	-1.2
O=C(C[C@H]1C=C[C@@H](NC(=O)Nc2cc(F)ccc2F)[C@H](CO)O1)NCc1ccncn1	i	0.2
O=S(=O)(c1ccccc1)N1C[C@@H]2[C@H](c3ccccc31)[C@@H](CO)N2Cc1ccc(F)cc1	i	2.4
C[C@@H]1CCCCO[C@H](CN(C)Cc2ccc3c(c2)OCO3)[C@H](C)CN([C@@H](C)CO)C(=O)c2cc(NC(=O)Nc3ccc(F)cc3)ccc2O1	i	10
CCC(=O)N1C[C@@H](C)[C@@H](OC)CN(C)C(=O)c2cc(NC(=O)Nc3cccc(F)c3)ccc2OC[C@@H]1C	i	0.9

Next compounds.
SMILES	FGF22 binding	AF4-AF9 inh
COc1cccc(S(=O)(=O)N[C@H]2CC[C@H](CC(=O)NC3CCC3)O[C@H]2CO)c1	i	-0.1
CCS(=O)(=O)Nc1ccc2c(c1)C(=O)N(C)[C@H]1CC[C@H](CC(=O)NCc3ccccc3F)O[C@@H]1CO2	i	-18
COCCNC(=O)C[C@@H]1CC[C@@H]2[C@H](COc3ccc(NC(=O)C4CCCC4)cc3C(=O)N2C)O1	i	-2.2
Cc1ccc(S(=O)(=O)N(C)C[C@H]2Oc3ccc(NC(=O)Nc4ccc5c(c4)OCO5)cc3CC(=O)N([C@H](C)CO)C[C@@H]2C)cc1	i	2.9
CC(C)NC(=O)Nc1ccc2c(c1)C(=O)N([C@H](C)CO)C[C@@H](C)[C@H](CN(C)C(=O)CCC(F)(F)F)OCCCC[C@@H](C)O2	i	-1.4
CN(C)CCCNC(=O)C[C@@H]1C=C[C@H](NS(=O)(=O)c2ccccc2)[C@H](CO)O1	i	-0.9
CN(C)CC(=O)N1[C@@H](C#N)[C@H](c2ccc(-c3cccc(C(=O)N(C)C)c3)cc2)[C@@H]1CO	i	0.5
CN1C(=O)c2cc(NC(=O)c3cccs3)ccc2OC[C@@H]2O[C@H](CC(=O)N3CCOCC3)CC[C@H]21	i	1.1
COc1ccc2c3c(n(C)c2c1)[C@H](CO)N(C(=O)C1CCOCC1)CC31CN(C(=O)C2CCOCC2)C1	i	9.5
CN(C)C(=O)C[C@@H]1C=C[C@@H](NC(=O)NC2CCCC2)[C@H](CO)O1	i	-0.8
C[C@@H]1CCCCO[C@H](CN(C)C(=O)c2ccccc2)[C@H](C)CN([C@@H](C)CO)C(=O)c2cc(NC(=O)Cc3ccccc3)ccc2O1	i	-0.3
CCCNC(=O)C[C@@H]1C[C@@H]2c3cc(NC(=O)NC4CCCCC4)ccc3O[C@@H]2[C@@H](CO)O1	i	3.6
CN(C)CC#Cc1cccc(-c2nc(C(=O)N[C@@H]3CCN(Cc4ccccc4)C3)cc3c2[C@@H](CCO)N(S(=O)C(C)(C)C)C3)c1 (some centres not stated)	i	9.4
CC(C)NC(=O)N1C[C@H]2[C@@H](c3ccccc31)[C@@H](CO)N2Cc1ccccc1	i	-0.7
O=C(C[C@@H]1CC[C@H]2[C@@H](COC[C@H](O)CN2Cc2cc(F)ccc2F)O1)N1CCc2ccccc2C1	i	2.2
C[C@@H]1CN([C@@H](C)CO)C(=O)c2cc(NC(=O)Nc3ccc4c(c3)OCO4)ccc2O[C@@H](C)CCCCO[C@@H]1CN(C)Cc1ccc(C(F)(F)F)cc1	i	-0.1
C[C@H](CO)N1C[C@H](C)[C@H](CN(C)S(=O)(=O)c2cn(C)cn2)Oc2ccc(NC(=O)C3CC3)cc2CC1=O	i	-1.0
CCC(=O)Nc1ccc2c(c1)OC[C@H](C)N(Cc1ccccc1OC)C[C@H](C)[C@@H](OC)CN(C)C2=O	i	-0.1
COc1ccc2c3c(n(C)c2c1)[C@@H](CO)N(C(=O)CN1CCOCC1)CC31CN(Cc2ccncc2)C1	i	0.0
CNC[C@@H]1Oc2ccc(NC(=O)Cc3ccccc3)cc2CC(=O)N([C@H](C)CO)C[C@@H]1C	i	-3.8
COc1ccc(NC(=O)N(C)C[C@H]2OCCCC[C@H](C)Oc3ccc(NC(=O)Nc4cccc5ccccc45)cc3C(=O)N([C@@H](C)CO)C[C@H]2C)cc1	i	-3.6
COc1cccc(C(=O)N2C[C@@H]3[C@H](c4ccccc42)[C@H](CO)N3C(=O)c2ccc(F)cc2)c1	i	-5.0
C[C@@H]1CCCCO[C@@H](CN(C)Cc2ccc3c(c2)OCO3)[C@H](C)CN([C@H](C)CO)C(=O)c2cc(NC(=O)C3CCCCC3)ccc2O1	i	-1.1
CN1C(=O)c2cc(NC(=O)C3CCC3)ccc2OC[C@H]2O[C@@H](CC(=O)NCC3CCCCC3)CC[C@@H]21	i	0.1
COCCNC(=O)C[C@H]1CC[C@H]2[C@@H](COC[C@@H](O)CN2S(=O)(=O)c2ccccc2C)O1	i	-1.6

(cont.)
SMILES	FGF22 binding	AF4-AF9 inh
CC(C)NC(=O)Nc1ccc2c(c1)C(=O)N([C@@H](C)CO)C[C@H](C)[C@@H](CN(C)Cc1ccc(C(F)(F)F)cc1)OCCCC[C@H](C)O2	i	4.6
Cc1noc(C)c1S(=O)(=O)N(C)C[C@H]1Oc2ccc(NS(=O)(=O)c3ccccc3)cc2CC(=O)N([C@H](C)CO)C[C@H]1C	i	-3.4
C[C@H]1CN([C@@H](C)CO)C(=O)Cc2cc(NS(=O)(=O)c3ccc(Cl)cc3)ccc2O[C@@H]1CN(C)Cc1ccc2c(c1)OCO2	i	1.5
C[C@@H]1CN([C@H](C)CO)S(=O)(=O)c2ccc(-c3cccc(C#N)c3)cc2O[C@@H]1CN(C)CC1CC1	i	3.4
CC(C)NC(=O)N(C)C[C@H]1OCCCC[C@H](C)Oc2ccc(NS(=O)(=O)c3ccc(Cl)cc3)cc2C(=O)N([C@H](C)CO)C[C@H]1C	i	-1.7
CCC(=O)N[C@H]1CC[C@@H](CCNC(=O)Nc2ccc(F)cc2)O[C@H]1CO	i	0.3
CC(=O)N1[C@@H]2Cn3c(ccc(C4=CCCCC4)c3=O)[C@H]1[C@@H](C(=O)NC1CCC1)[C@@H]2CO	i	-0.6
CCC(=O)N1[C@H](CO)[C@@H](c2ccccc2)[C@@H]1CN(C)C(=O)CN1CCOCC1	i	-1.1
O=C(C[C@@H]1CC[C@@H]2[C@H](COC[C@H](O)CN2S(=O)(=O)c2ccc(F)cc2)O1)N1CCc2ccccc2C1	i	-0.4
C[C@@H]1CCCCO[C@@H](CN(C)C(=O)Cc2ccccc2)[C@@H](C)CN([C@H](C)CO)C(=O)c2cc(NS(=O)(=O)c3ccccc3)ccc2O1	i	4.8
CCCNC(=O)C[C@H]1C[C@@H]2c3cc(NS(=O)(=O)c4cccc(OC)c4)ccc3O[C@@H]2[C@H](CO)O1	i	-3.2
COCC(=O)N1CCCCN2[C@H](CO)[C@H](c3ccc(C#Cc4cccnc4)cc3)[C@H]2C1	i	-2.9
C/C=C/c1ccc2c(c1)O[C@@H](CN(C)C)[C@@H](C)CN([C@@H](C)CO)S2(=O)=O	i	-1.4
COc1ccc2c3c([nH]c2c1)[C@H](CO)N(S(C)(=O)=O)CC31CCN(C(=O)c2ccccc2)CC1	i	1.2
C[C@@H]1CCCCO[C@@H](CN(C)C(=O)Cc2ccccc2)[C@@H](C)CN([C@H](C)CO)C(=O)c2cc(NC(=O)c3ccccc3)ccc2O1	i	-0.4
C[C@H]1CN([C@@H](C)CO)C(=O)c2cc(NC(=O)C3CCCCC3)ccc2O[C@@H]1CN(C)Cc1ccc(C(=O)O)cc1	i	-4.0
[N-]=[N+]=NCc1ccccc1C[C@@]1(C(=O)N2CCCCC2)N=C(c2ccc(OCCCO)cc2)O[C@@H]1c1ccccc1	i	1.8
COc1cccc(-c2ccc([C@@H]3[C@H](CO)N4CCCCN(S(=O)(=O)c5cccs5)C[C@@H]34)cc2)c1	i	-2.2
COc1ccc(-c2cnc3c(c2)C(=O)N([C@@H](C)CO)C[C@H](C)[C@@H](CN(C)C(=O)C2CCC2)O3)cc1	i	-2.8
COc1ccc(NC(=O)N(C)C[C@@H]2Oc3c(NS(=O)(=O)c4ccc(C)cc4)cccc3C(=O)N([C@@H](C)CO)C[C@H]2C)cc1	i	-3.4
O=C(C[C@@H]1C[C@@H]2c3cc(NC(=O)NC4CCCCC4)ccc3O[C@@H]2[C@@H](CO)O1)NCCc1ccccc1	i	-3.2
CO[C@@H]1CN(C)C(=O)c2cc(NC(=O)c3cnccn3)ccc2OC[C@@H](C)N(CCc2ccccc2)C[C@H]1C	i	6.2
O=C(C[C@@H]1C=C[C@H](NC(=O)C2CCC2)[C@H](CO)O1)Nc1nccs1	i	-1.5
CC(=O)NC[C@H]1[C@@H](c2ccc(-c3ccccc3)cc2)[C@H](CO)N1C(=O)C1CC1	i	-7.2
CCS(=O)(=O)Nc1ccc2c(c1)C(=O)N(C)[C@H]1CC[C@H](CC(=O)N[C@@H]3CCN(Cc4ccccc4)C3)O[C@@H]1CO2	i	3.5
CCNC(=O)C[C@H]1CC[C@H]2[C@@H](COc3ccc(NC(=O)c4ccc(F)cc4)cc3C(=O)N2C)O1	i	-2.0
